# Screens (PubChem)
# Cruzain Triton: blocks cruzain activity in presence of Triton detergent; Potency, µM, for the others: max response, negative = inhibition, most hits filed as inhibitors; AID 1478; purified cruzain, Z-FR-AMC fluorescence, 0.01% Triton; hit rate 0.43% among 200,000; P25779;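 also: plate controls were neutral wells for no effect and buffer without enzyme for full effect; nearly all actives have a fitted effect of over 40% in size; top concentration of the series not given in the record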
# Target sequence (P25779 123-467 limits assumed): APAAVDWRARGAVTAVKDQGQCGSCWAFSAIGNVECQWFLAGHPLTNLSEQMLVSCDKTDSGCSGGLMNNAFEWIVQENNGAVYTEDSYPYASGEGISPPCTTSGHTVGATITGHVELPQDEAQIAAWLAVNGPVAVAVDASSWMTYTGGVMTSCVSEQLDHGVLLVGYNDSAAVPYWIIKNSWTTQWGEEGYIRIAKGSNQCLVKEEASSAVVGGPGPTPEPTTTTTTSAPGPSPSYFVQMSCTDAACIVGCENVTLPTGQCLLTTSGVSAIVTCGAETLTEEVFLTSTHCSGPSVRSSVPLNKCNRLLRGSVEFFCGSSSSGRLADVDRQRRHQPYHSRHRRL
#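 In this qHTS format, compounds are incubated with 1.5 nM cruzain for 15 min at room temperature before 2 uM Z-FR-AMC is added. Release of AMC is followed at 360/450 nm, and progress is taken as the 60 s fluorescence difference.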
# MARV entry inh: blocks Marburg virus binding to or entry into cells. Marburg virus pseudotyped entry inhibition, cell reporter; control for the full effect not named in the record; about a third of the inactives were read at about 46 µM. Potency, µM (series often up to 37.8 µM), for the others: at the top dose activity change, negative = inhibition, most hits filed as inhibitors. hit rate 1.8% among 300,000; active = well fitted inhibition curve with a large enough effect; inconclusive = small, poorly fitted or top-dose-only effect, or effect the other way; inactive = flat fitted curve, though single readings scatter; tested in HEK293 cells; about a fifth of its hits are not listed in these tables; also: % is scaled to controls: 0 for no effect and ±100 for the full control effect; luciferase read-out
# Cruzain inh noDet: inhibitors of Trypanosoma cruzi cruzain without detergent | P25779 | Potency, µM, inactives show max response, negative = inhibition, usual class: inhibitors | AID 1476 | purified cruzain, Z-FR-AMC fluorescence, no detergent | hit rate 2.3% among 200,000;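 also: plate controls were enzyme without inhibitor for no effect and buffer without enzyme for full effect; nearly all actives have a fitted effect of over 40% in size; top concentration of the series not given in the record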
#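 Purified cruzain at 1.5 nM, pre-incubated 15 min with compound at room temperature in 100 mM sodium acetate pH 5.5, 5 mM DTT, 0.00005% Triton X-100. Reaction started with 2 uM Z-FR-AMC; AMC fluorescence increase over 60 s gives rate.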
# Lassa entry inh: Lassa virus entry inhibition. hit rate 1.2% among 300,000. Potency, µM (highest dose often 37.9 µM), inactives show at the highest dose activity change, negative = inhibition, usual class: inhibitors. Lassa virus pseudotype entry inhibition, cell reporter; control for the full effect not named in the record; active means well fitted inhibition curve with a large enough effect; inconclusive means small, poorly fitted or top-dose-only effect, or effect the other way; inactive means flat fitted curve, though single readings scatter; tested in HEK293 cells; also: % is scaled to controls: 0 for no effect and ±100 for the full control effect; nearly all actives have a fitted effect of over 50% in size; luciferase read-out
# 2A StopGo: lowers the luciferase signal of an FMDV 2A StopGo reporter; AID 1159524; Potency, µM (highest dose often 57.9 µM), for the others: at the top dose signal change, negative = less light; human cells with a luciferase reporter of 2A StopGo recoding; control for the full effect not named in the record; hit rate 1.2% among 410,000; active = well fitted falling curve with a large enough effect; inconclusive = small, poorly fitted or top-dose-only effect; inactive = no such curve, though single readings can be large or run the other way; tested in HEK293T cells; also: % is scaled to controls: 0 for no effect and ±100 for the full control effect; nearly all actives have a fitted effect of over 45% in size; luciferase light after 4 h
# SARS PLP yeast: inhibitors of SARS-CoV papain-like protease in yeast; hit rate 0.19% among 330,000; Potency, µM (top dose mostly 32.9 µM), without a hit: at the top dose activity, positive = growth rescue; AID 485353; S. cerevisiae expressing SARS-CoV PLpro, growth rescue; control for the full effect not named in the record; active means well fitted rising curve with a large enough effect; inconclusive means small, poorly fitted or top-dose-only effect; inactive means no such curve, though single readings can be large or run the other way; also: 0% is about no effect; nearly all actives have a fitted effect of over 55% in size; growth read by luminescence after 48 h
# RE007 growth inh: less growth of the S. pombe RE007 Vpr strain. AID 651644. hit rate 0.21% among 360,000. S. pombe RE007 Vpr strain, BacTiter-Glo ATP luminescence, 24 h; control for the full effect not named in the record. Potency, µM (series often up to 92.2 µM), inactives show at the highest dose activity change, negative = less growth; active = well fitted falling curve with a large enough effect; inconclusive = small, poorly fitted or top-dose-only effect; inactive = no such curve, though single readings can be large or run the other way;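 also: % is scaled to controls: 0 for no effect and ±100 for the full control effect; nearly all actives have a fitted effect of over 50% in size; the assay follows cell death caused by Vpr and the record does not say whether a fall means rescue or toxicity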
#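 Fission yeast RE007 carrying one integrated HIV-1 vpr copy, seeded at OD 0.01 in PMG+AL medium with 23 nL pinned compound. Grown 24 h at 30 degrees; viability read by BacTiter-Glo luminescence after 5 min.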
# NS1 inh: influenza NS1 inhibition; Potency, µM (top dose mostly 46.1 µM), for the others: top-dose activity, positive = more growth; hit rate 0.4% among 270,000; S. cerevisiae slowed by influenza A NS1, growth recovery by OD600; AID 2326; active means well fitted rising curve with a large enough effect; inconclusive means small, poorly fitted or top-dose-only effect; inactive means no such curve, though single readings can be large or run the other way; also: nearly all actives have a fitted effect of over 50% in size
#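 In this qHTS, NS1 from influenza A is expressed in budding yeast, where it slows growth. Cells are switched from glucose to 2% galactose medium (pH 6.0, -URA), treated with compound, and growth recovery is read at OD600.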
# Starred values were filed as active, the others as inactive; ? = inconclusive; / = not tested or not shown; [ ] = dose if it differs, or a comment. Unless noted, calls follow the shape of the dose curve; as a rule, active = well fitted curve in the direction sought with a large enough effect; inconclusive = small, poorly fitted or top-dose-only effect, or another doubt; inactive = no such curve, though single readings can be large; an effect the other way counts as inactive or inconclusive. Potency is read from the fitted curve at half-maximal effect.
SMILES,2A StopGo,Cruzain inh noDet,NS1 inh,SARS PLP yeast,MARV entry inh,RE007 growth inh,Cruzain Triton,Lassa entry inh
CCOC(=O)c1sc(NC(=O)Nc2ccc(F)cc2)nc1C,-20%,12%,-1%,13%,?,4%,-2.5%,?
O=C(CN1CCCC1c1ccc2c(c1)OCCO2)NC(=O)Nc1ccccc1F (stereo not given),-6%,/,/,0%,0%,-10%,/,-4%
CCNc1c(NC(=O)C2CCC(C)CC2)c(=O)oc2ccccc12 (stereo not given),-1%,/,-8%,1%,9%[46.1 µM],3%,/,4%
CC1CCN(CC(C)OC(=O)c2ccc3c(c2)OCCO3)CC1 (stereo not given),30%[activator],-8%,-1%,-6%,/,-3%,-6.1%,/
Clc1ccc(Cn2ncc3c(N4CCCC4)ncnc32)cc1,-6%,21%,-39%,-8%,-14%,-11%,-2.7%,5%
O=C(NCCN1CCOCC1)c1cccc(S(=O)(=O)N2CCCCCC2)c1,16%,0%,-2%,1%,-23%,-7%,0.8%,5%
CCOC(=O)c1cc(S(=O)(=O)NCc2ccc(C)cc2)[nH]n1,-14%,2%,/,/,/,/,-1.9%,-8%[46.1 µM]
Cc1nc(CCNC(=O)C2CCC(=O)N(Cc3ccc(Cl)cc3)C2)sc1C (stereo not given),3%,/,-7%,3%,15%[46.1 µM],7%,/,12%[46.1 µM]
OC(C[n+]1ccccc1)c1ccccc1 (stereo not given),-12%,/,1%,2%,/,16%,/,/
O=C(Cc1ccc(F)cc1)Nc1nnc(-c2ccc(F)cc2)o1,37%[activator],/,6%,3%,/,11%,/,/
COc1ccccc1OCC(=O)NNC(=O)c1ccc(F)c(S(=O)(=O)N2CCOCC2)c1,-3%,/,/,16%,-10%,?,/,-2%
COC(=O)c1ccccc1NC(=O)C1CCN(C(=O)Cc2ccccc2)CC1,-19%,/,-2%,1%,-11%,-15%,/,-18%
O=C1CCCN1CCC1CCCCN1Cc1nc(-c2cnccn2)no1 (stereo not given),-6%,/,4%,-2%,/,-1%,/,/
CC(=O)Nc1ccc(S(=O)(=O)NC(C)C(=O)OCC(=O)NC2CCCC2)cc1 (stereo not given),-22%,-3%,4%,9%,9%,-7%,0.8%,3%
C/C(=N/NC(=O)CN1CCN(S(=O)(=O)c2ccc(Br)cc2)CC1)c1ccco1,-20%,5%,7%,4%,-10%,-1%,-2.1%,-5%
Cc1ccsc1C(=O)Nc1ccccc1N1CCOCC1,-6%,-12%,-51%,2%,0%,-10%,0.2%,1%
O=S(=O)(NCCCN1CCOCC1)c1ccc(Cl)s1,-4%,/,1%,-1%,/,8%,/,/
COc1nc(N)c(S(=O)(=O)c2ccccc2C)cc1C#N,27%,4%,-3%,-1%,?,-4%,1.1%,12%
Cc1nc2ccccc2n1CC(=O)OCC(=O)Nc1ccc2c(c1)OCCO2,8%,-2%,0%,1%,15%,-6%,3.0%,9%
Cc1cccc2cc(CN(CC(C)C)S(=O)(=O)c3ccccc3)c(=O)[nH]c12,?,/,17%,-1%,/,4%,/,/

# Of the compounds above, these have an NH in an aromatic ring.
SMILES,2A StopGo,Cruzain inh noDet,NS1 inh,SARS PLP yeast,MARV entry inh,RE007 growth inh,Cruzain Triton,Lassa entry inh
CCOC(=O)c1cc(S(=O)(=O)NCc2ccc(C)cc2)[nH]n1,-14%,2%,/,/,/,/,-1.9%,-8%[46.1 µM]
Cc1cccc2cc(CN(CC(C)C)S(=O)(=O)c3ccccc3)c(=O)[nH]c12,?,/,17%,-1%,/,4%,/,/

# (cont.)
SMILES,2A StopGo,Cruzain inh noDet,NS1 inh,SARS PLP yeast,MARV entry inh,RE007 growth inh,Cruzain Triton,Lassa entry inh
CCOC(=O)N1CCN(C(=O)C(=O)N/N=C/c2ccc(OC)cc2OC)CC1,11%,/,-11%,0%,12%,-1%,/,-11%
O=c1c([N+](=O)[O-])cccn1Cc1ccc(F)cc1Cl,?,/,/,-2%,?,-15%,/,?
CC(C)c1ccc(NC(=O)CSC2=Nc3ccccc3C3=NC(CC(=O)NCc4ccco4)C(=O)N23)cc1 (stereo not given),?,?,/,/,/,/,-4.6%,-26%[46.1 µM]
COc1ccc(-c2cn3c(C)c(C(=O)NC(C)(C)C)sc3n2)cc1,-27%,/,-1%,3%,/,6%,/,/
CCOCCCNC(=O)C1CCCN1C(=O)NC1CCCCC1 (stereo not given),28%,6%,1%,1%,5%,-4%,6.1%,8%
O=C(Cn1cc(C(=O)c2cccs2)c2ccccc21)NCc1cccs1,52%[activator],-29%,7%,-9%,16%,19%,-4.2%,28%
CCN(CC(=O)Nc1c(F)cccc1F)C(=O)C1COc2ccccc2O1 (stereo not given),-13%,/,/,15%,?,19%,/,7%
Cc1ccc(NC(=O)CCC(=O)NNC(=O)COc2ccc([N+](=O)[O-])cc2)c(C)c1,-1%,/,7%,3%,/,-13%,/,/
CC(C)(C)C(=O)CNS(=O)(=O)c1ccc(S(=O)(=O)NC2CCCC2)cc1,/,13%,1%,6%,-4%,0%,3.5%,-2%
CN(CC(=O)Nc1ccccc1C(F)(F)F)C(=O)COc1cccnc1[N+](=O)[O-],7%,/,1%,-2%,/,24%,/,/
CC(C)(C)c1ccccc1NC(=O)CN1C(=O)NC(Cc2ccccc2)C1=O (stereo not given),-11%,/,/,3%,-5%,-10%,/,1%
Cc1ccc(S(=O)(=O)NCCCn2ccnc2)cc1C(=O)NC(C)C,24%,/,11%,2%,/,11%,/,/
COc1cccc(C2CC(c3ccccc3)n3ncnc3N2)c1 (stereo not given),-21%,?,-1%,4%,/,-6%,-2.1%,/
CCOC(=O)c1ccc(NC(=O)Nc2c(C)n(C)n(-c3ccccc3)c2=O)cc1,-17%,/,4%,1%,1%,9%,/,3%
O=C(CCC1CCCC1)Nc1cccc(Cc2ccncc2)c1,-7%,/,-4%,-1%,23%[46.1 µM],5%,/,-5%[46.1 µM]
Nc1nc(Br)c2ccccc2c1-c1ccc(F)cc1,-24%,-9%,-2%,5%,-1%,-11%,-8.1%,?
O=C(NCCc1ccccc1)C1(c2ccccc2)CC1(Cl)Cl (stereo not given),21%,-1%,-29%,-3%,-28%,-6%,-0.4%,0%
CC(C)C(=O)N(Cc1ccc2c(c1)OCO2)Cc1ccccn1,10%,0%,-6%,0%,6%,-10%,0.1%,-7%
CCCCC(CC)CNC(=O)c1cccs1 (stereo not given),/,-5%,-69%,-54%,3%,-23%,-2.7%,9%
CCN=C1S/C(=C\c2ccc(O)c(OCC)c2)C(=O)N1CC,-8%,3%,-7%,21%,?,-7%,-11%,13µM*
COc1ccc(CNn2c(-c3ccccc3F)nc3ccccc3c2=O)cc1OC,-15%,/,/,2%,0%[46.1 µM],-5%,/,4%
O=C1CC(N2CCN(c3ccccc3)CC2)C(=O)N1CCc1ccccc1 (stereo not given),?,27%,-3%,-6%,-5%,-8%,2.4%,?
Cn1c(CNC(=O)c2ccccc2F)nnc1SCC(=O)Nc1nnc(C2CC2)s1,13%,/,5%,-2%,9%[46.1 µM],5%,/,2%[46.1 µM]
Cc1cc(C)c(S(=O)(=O)N2CCN(C(=O)c3ccc(-n4cncn4)c([N+](=O)[O-])c3)CC2)c(C)c1,0%,/,/,2%,-5%,4%,/,?
Cc1cccc(OCC(O)Cn2c(N3CCCCC3)nc3c2c(=O)n(C)c(=O)n3C)c1 (stereo not given),?,/,-2%,1%,/,-1%,/,/
Cc1ccccc1NC(=O)c1cn2c(nc3ccccc32)c(C#N)c1C,-2%,/,5%,1%,/,-4%,/,/
Cc1ccc(NC(=O)COC(=O)CNC(=O)C2CCCCC2)cc1S(=O)(=O)N(C)C,56%[activator],/,/,-1%,0%[46.1 µM],14%,/,0%[46.1 µM]
CNC(=S)SCCOc1ccccc1,6%,/,1%,0%,8%[46.1 µM],-25%,/,7%[46.1 µM]
COc1ccc(OCC(=O)NC2CC(=O)N(c3cccc(OC)c3)C2)cc1 (stereo not given),-14%,4%,/,/,/,/,-2.7%,-12%[46.1 µM]
COc1cccc(C(=O)Nc2cccc(-c3ccccc3)c2)c1,16%,/,-36%,-17%,/,?,/,/
O=C(NCc1ccccc1)c1cccnc1,-10%,/,2%,-2%,/,1%,/,/

# Of the compounds above, 10 contain fluorine:
SMILES,2A StopGo,Cruzain inh noDet,NS1 inh,SARS PLP yeast,MARV entry inh,RE007 growth inh,Cruzain Triton,Lassa entry inh
CCOC(=O)c1sc(NC(=O)Nc2ccc(F)cc2)nc1C,-20%,12%,-1%,13%,?,4%,-2.5%,?
O=C(CN1CCCC1c1ccc2c(c1)OCCO2)NC(=O)Nc1ccccc1F (stereo not given),-6%,/,/,0%,0%,-10%,/,-4%
O=C(Cc1ccc(F)cc1)Nc1nnc(-c2ccc(F)cc2)o1,37%[activator],/,6%,3%,/,11%,/,/
COc1ccccc1OCC(=O)NNC(=O)c1ccc(F)c(S(=O)(=O)N2CCOCC2)c1,-3%,/,/,16%,-10%,?,/,-2%
O=c1c([N+](=O)[O-])cccn1Cc1ccc(F)cc1Cl,?,/,/,-2%,?,-15%,/,?
CCN(CC(=O)Nc1c(F)cccc1F)C(=O)C1COc2ccccc2O1 (stereo not given),-13%,/,/,15%,?,19%,/,7%
CN(CC(=O)Nc1ccccc1C(F)(F)F)C(=O)COc1cccnc1[N+](=O)[O-],7%,/,1%,-2%,/,24%,/,/
Nc1nc(Br)c2ccccc2c1-c1ccc(F)cc1,-24%,-9%,-2%,5%,-1%,-11%,-8.1%,?
COc1ccc(CNn2c(-c3ccccc3F)nc3ccccc3c2=O)cc1OC,-15%,/,/,2%,0%[46.1 µM],-5%,/,4%
Cn1c(CNC(=O)c2ccccc2F)nnc1SCC(=O)Nc1nnc(C2CC2)s1,13%,/,5%,-2%,9%[46.1 µM],5%,/,2%[46.1 µM]
